BJeLR lethal = BJeLR cell viability loss; BJeLR (HRASV12) viability, CellTiter-Glo ATP luminescence, 48 h; reference of the scale not given here; inhibition, % (test concentration not listed); 300,000 tested, 0.17% active; AID 1554;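 active = replicate mean above 50%; inconclusive = above 50% but judged a plate artefact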;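 also: 50 nL library stock added to about 25 µL; numbers are from one replicate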
Mtb hypoxia rep = inhibitors of hypoxia-regulated fluorescent reporter in Mycobacterium tuberculosis; 300,000 tested, 0.1% active; fluorescence inhibition, % (concentration not given with the values); M. tuberculosis hypoxia-regulated fluorescent reporter, fluorescence; AID 1159583;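 active = 35 to 45% if threefold the growth effect, above 45% if 1.5-fold the growth effect; inactive = the rest, general growth blockers included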;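 also: wells of about 50 µL received 100 nL stock; 0% = vehicle wells and 100% = reference inhibitor wells; whole bacteria with a GFP reporter of the hypoxia response; strong numbers were not always called active; many hits fall short of the cut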
Autofluor counter = compound fluorescence in toxin protease inhibitor counterscreen. fluorescence intensity (no concentration beside the values). AID 624483. 360,000 tested, 3.1% active. compound autofluorescence counterscreen, microsphere flow cytometry; active compounds read high;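 active = at least 3 SD above the mean of all compounds, about 16000 in these data; inconclusive = too few beads counted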;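 also: 100 nL of 1 mM stock went into each well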
RN4220 kill = S. aureus RN4220 growth inhibition. OD600, 16 h. inhibition, % (no concentration beside the values). 330,000 tested, 0.33% active;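 active = z-score of -3 or lower and OD600 up to 0.18 on both plates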;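 also: plate controls were untreated cells for no effect and reference antibiotic for full effect; stock transfer was 100 nL into about 80 µL; one replicate is shown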
PrP 5UTR inh = suppresses PrP 5' UTR mRNA reporter expression. inhibition, % (test concentration not listed). cell-based PrP 5' UTR mRNA reporter, plate reader. 340,000 tested, 0.35% active;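 active = every replicate at 50% or more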;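 also: 0 = median of the neutral control wells; tested in H4 reporter cells; numbers are from one replicate; inactives centre near -14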
ugtP null kill = compounds lethal to S. aureus RN4220 ugtP deletion mutant; OD600 growth, 16 h; some inactives read as strong as hits; growth inhibition, % (no concentration beside the values); 330,000 tested, 0.54% active;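 active = z-score under -3 and OD600 up to 0.15 on both plates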;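 also: plate controls were untreated wells for no effect and antibiotic for full effect; wells of about 80 µL received 100 nL stock; the first replicate is given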
Mtb hypoxia rep growth = further read-out of Mtb hypoxia rep, marked with its call; growth inhibition, %; measured here: M. tuberculosis growth (absorbance);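 0% = vehicle and 100% = reference antibiotic; read after six days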
The depositor's hits bear a star; ? = inconclusive; . = no result given; & = joins results of further samples. The order is random, and some 4.1% of all compounds hit somewhere here.

The opening 5 entries as a preview:
entry | SMILES | BJeLR lethal | Mtb hypoxia rep | Mtb hypoxia rep growth | Autofluor counter
1 | Cc1cc(O)c(Sc2ncn[nH]2)cc1NS(=O)(=O)c1ccc(Cl)cc1 | . | -8 | -4 | 3776
2 | Nc1c(N(Cc2ccco2)C(=O)COc2ccccc2)c(=O)[nH]c(=O)n1Cc1ccccc1 | . | 1 | 4 | 3988
3 | COC(=O)c1cc2c(C)[nH]c(C)c2cc(C(=O)OC)c1=O | -1 | 14 | 6 | 2093
4 | CCOc1ccccc1N1CCN(S(=O)(=O)c2cc(C)ccc2OC)CC1 | -1 | 0 | 0 | 4150
5 | CCOc1cc(NC(=S)Nc2ccccc2)c(OCC)cc1NC(=O)c1ccccc1 | -16 | 6 | 4 | 23797*

entry | RN4220 kill | PrP 5UTR inh | ugtP null kill
1 | 5.6 | -25 | 0
2 | 7.7 | -13 | 4
3 | 4.1 | -8 | 10
4 | 4.9 | -9 | -3
5 | 18 | -17 | -8

This part in full, repeating the preview:
entry | SMILES | BJeLR lethal | Mtb hypoxia rep | Mtb hypoxia rep growth | Autofluor counter
1 | Cc1cc(O)c(Sc2ncn[nH]2)cc1NS(=O)(=O)c1ccc(Cl)cc1 | . | -8 | -4 | 3776
2 | Nc1c(N(Cc2ccco2)C(=O)COc2ccccc2)c(=O)[nH]c(=O)n1Cc1ccccc1 | . | 1 | 4 | 3988
3 | COC(=O)c1cc2c(C)[nH]c(C)c2cc(C(=O)OC)c1=O | -1 | 14 | 6 | 2093
4 | CCOc1ccccc1N1CCN(S(=O)(=O)c2cc(C)ccc2OC)CC1 | -1 | 0 | 0 | 4150
5 | CCOc1cc(NC(=S)Nc2ccccc2)c(OCC)cc1NC(=O)c1ccccc1 | -16 | 6 | 4 | 23797*
6 | Cn1cc(Br)c(C(=O)N/N=C/c2cccc(OC3CSC3)c2)n1 | -13 | . | . | 2385
7 | CC(C(=O)NCC1CCCCC1)N1CCN(S(=O)(=O)c2ccccc2F)CC1 (configuration not stated) | -6 | 8 | 8 | 4845
8 | Cc1ccsc1C=NNC(=O)c1cc(C(C)(C)C)[nH]n1 | . | 2 | 3 | .
9 | Brc1cccc(C=Nn2cnnc2)c1 | . | 0 | -1 | .
10 | CCN(CC(=O)Nc1ccc(NC(C)=O)cc1)C(=O)CSC(=S)N1CCCC1 | . | 6 | 3 | ?
11 | O=C(CN1C(=O)CSc2ccc(S(=O)(=O)N3CCCCC3)cc21)NCc1ccccc1Cl | -1 | 5 | 8 | 5472
12 | Cc1ccc(NC(=O)Cc2nnc(SCC(=O)Nc3nncs3)n2C)c(C)c1 | -8 | -10 | -3 | 3471
13 | CCOC(=O)CNc1nnc(SCC(=O)OCC)[nH]c1=O | 2 | . | . | 4407
14 | COc1ccc(NC(=O)CN2CCN(c3ccccn3)CC2)cc1Cl | -6 | 6 | 1 | 3485
15 | N=c1ccn(CC(=O)c2ccc(-c3ccccc3)cc2)cc1 | 4 | 13 | 8 | 3829

entry | RN4220 kill | PrP 5UTR inh | ugtP null kill
1 | 5.6 | -25 | 0
2 | 7.7 | -13 | 4
3 | 4.1 | -8 | 10
4 | 4.9 | -9 | -3
5 | 18 | -17 | -8
6 | . | -38 | .
7 | 14 | -6 | 5
8 | -0.7 | . | 0
9 | 3.6 | . | 2
10 | 2.1 | . | 0
11 | 2.9 | 0 | -1
12 | 3.6 | 0 | 15
13 | -5.0 | -11 | -4
14 | 1.5 | . | 7
15 | -0.5 | -10 | 0

The results go on.
entry | SMILES | BJeLR lethal | Mtb hypoxia rep | Mtb hypoxia rep growth | Autofluor counter
16 | CC1(C(=O)N/N=C/c2ccc3c(c2)OCO3)CC1(Br)Br (configuration not stated) | -14 | . | . | 5204
17 | O=C(Cn1nc(C(=O)O)c2ccccc2c1=O)Nc1ccc(F)cc1 | -8 | 3 | 13 | 5877
18 | COC(=O)c1c(C(=O)OC)c(-c2ccc(Cl)c(Cl)c2)n2c1CCC2 | 10 | 10 | 7 | 10365
19 | Cc1cc(C)c2cc(C)c(SCC(=O)NCc3ccco3)nc2c1 | -6 | -1 | -6 | 2118
20 | CCCNC1CCc2nc(N)sc2C1 (configuration not stated) | . | 2&-2 | 7&2 | .
21 | COc1ccc(S(=O)(=O)N2CCC(C(=O)OCC(=O)c3ccccc3)CC2)cc1[N+](=O)[O-] | 0 | 8 | 10 | 7051
22 | COc1ccccc1OCCNC(=O)Nc1ccc(Br)cc1 | 9 | 9 | 9 | 3885
23 | C=CCn1nnnc1SCC(=O)Nc1cccc(OC)c1 | 3 | 8 | 6 | 9813
24 | Cc1sc2ncn(CC(=O)NCCN(C)C)c(=O)c2c1S(=O)(=O)N1CCC(C)CC1 | 6 | -6 | 1 | 5742
25 | CCN1CCN(C(=O)/C=C/c2ccc(C(C)C)cc2)CC1 | 13 | 20 | 7 | 3437
26 | O=C(N/N=C/c1sc2ccccc2c1O)c1ccccc1 | 17 | . | . | 10284
27 | COc1ccc(C(=O)Nc2nc3cc4c(cc3s2)OCO4)c(OC)c1 | 0 | -7 | 4 | 4391
28 | COc1ccc(-c2nc3ccccn3c2CN2CCN(c3ccccc3F)CC2)cc1 | 6 | -9 | 7 | 4275
29 | O=C(Oc1ccccc1C(=O)N1CCOCC1)c1ccccc1 | -2 | 4 | 1 | 11107
30 | CC(=O)c1ccccc1N(C(=O)Cn1nnc2ccccc21)C(C(=O)NCC1CCCO1)c1ccc(N2CCOCC2)cc1 (configuration not stated) | 0 | 15 | -3 | 3309

entry | RN4220 kill | PrP 5UTR inh | ugtP null kill
16 | . | -4 | .
17 | 2.1 | -18 | -2
18 | 4.5 | -24 | -2
19 | -1.7 | -2 | 0
20 | 2.1&6.8 | . | 3&-2
21 | 2.2 | -11 | -1
22 | -1.6 | -16 | -2
23 | 4.3 | . | 6
24 | -1.1 | -6 | 1
25 | -0.6 | -6 | 5
26 | . | -34 | .
27 | 0.7 | -67 | 3
28 | 1.1 | -23 | 5
29 | -1.4 | -28 | 9
30 | -1.3 | 36 | 8

Remaining list, next part
entry | SMILES | BJeLR lethal | Mtb hypoxia rep | Mtb hypoxia rep growth | Autofluor counter
31 | CC(=O)c1cccc(NS(=O)(=O)N2CCCCC2)c1 | -3 | . | . | 4571
32 | O=C(Nc1ccc(Br)cc1)c1cc(-c2ccncc2)nc2ccccc12 | . | 0 | 9 | 3742
33 | O=C(N/N=C/c1ccc2c(c1)OCO2)c1cc(-c2ccccc2Cl)nc2ccccc12 | 8 | . | . | 10094
34 | C=CCn1cnc2scc(-c3ccc(CC)cc3)c2c1=O | 5 | . | . | 4466
35 | Cc1cc(C)n2nc(C(=O)OCC(=O)Nc3ccc(C)c(S(=O)(=O)N(C)C)c3)nc2n1 | . | 7 | 0 | .
36 | CCOC(=O)CCN(C(=S)Nc1ccccc1)C1CCCCC1 | . | 6 | 8 | 4021
37 | O=C(Nc1nncs1)Oc1ccccc1 | -4 | 3 | -3 | 3342
38 | CN1c2ccc(Cl)cc2C(=O)NC1C1CC=CCC1 (configuration not stated) | 1 | 3 | 2 | 4158
39 | O=c1[nH]ncn1-c1ccccc1 | -1 | 8 | -1 | 4690
40 | CC(C)(C)c1ccc(C(=O)Nc2ccc(S(N)(=O)=O)cc2)cc1 | 0 | . | . | 2948
41 | Cc1ncc([N+](=O)[O-])n1CCOC(=O)c1ccc(Br)cc1 | 6 | 9 | 4 | 4833
42 | CON=CC(=NNc1ccccc1)C(=O)c1ccccc1 | . | 1 | 10 | .
43 | Cc1ccc(N(C(=O)c2csnn2)C(C(=O)NC2CCCCC2)c2ccccn2)cc1C (configuration not stated) | -9 | -2 | 1 | 5289
44 | CN1CCCNc2nc3ccccc3nc21 | -5 | 1 | 6 | 4513
45 | Clc1ccccc1/C=N/NC1=Nc2cccc3cccc1c23 | -3 | . | . | 2356

entry | RN4220 kill | PrP 5UTR inh | ugtP null kill
31 | 3.4 | -8 | -3
32 | -1.2 | -21 | -5
33 | . | -6 | .
34 | 3.9 | -7 | 8
35 | 2.8 | -6 | 4
36 | 6.7 | -30 | 0
37 | 0.9 | -12 | 6
38 | 3.0 | 1 | -4
39 | 4.1 | -31 | 3
40 | . | -32 | .
41 | 4.0 | -16 | -1
42 | -5.3 | . | 6
43 | 2.8 | -23 | 4
44 | 1.7 | -28 | 1
45 | . | -149 | .

Other entries.
entry | SMILES | BJeLR lethal | Mtb hypoxia rep | Mtb hypoxia rep growth | Autofluor counter
46 | CC1CCN(C(=O)C2CCC(CNS(=O)(=O)c3cccc4cccnc34)CC2)CC1 (configuration not stated) | 8 | . | . | 5787
47 | Cc1cccc2nc(COc3ccc(Cl)c4cccnc34)cn12 | 9 | 4 | 4 | 3438
48 | Nn1c(Nc2ccccc2)nc2ccccc21 | -5 | 7 | -3 | 3380
49 | COc1ccc(N(C)C(=O)CCS(=O)(=O)c2cccc3nonc23)cc1 | -13 | 7 | 15 | 3505
50 | CCN=C1SC(CC(=O)Nc2ccc3c(c2)OCO3)C(=O)N1CC (configuration not stated) | -6 | 13 | 0 | 2358
51 | CCOC(=O)c1c(C)[nH]c(C(=O)COC(=O)c2ccncc2)c1C | 6 | . | . | 5006
52 | O=C(O)c1cccc(Nc2nc(-c3ccc([N+](=O)[O-])cc3)nc3ccccc23)c1 | -8 | 0 | 1 | 3846
53 | CCN(c1ccccc1)S(=O)(=O)c1ccc(OC)c(NC(=O)Cc2ccc(F)cc2)c1 | . | -1 | 4 | 3931
54 | O=C(CSc1nc2ccccc2[nH]1)NN=C/C=C\c1ccccc1[N+](=O)[O-] | . | 6 | 3 | .
55 | O=S(=O)(c1cnc(Cl)c(Cl)c1)N1CCCc2ccccc21 | -2 | 17 | 3 | 2265
56 | Cn1c(=O)c2c(c3ccccc31)OC(=O)CC2c1cccnc1 (configuration not stated) | . | -5 | 0 | 4297
57 | CC(C)C(c1nnnn1Cc1ccco1)N1CCN(C2CCCC2)CC1 (configuration not stated) | 12 | . | . | 4104
58 | CCCCN(CCCC)C(=O)c1ccccc1NC(=O)CN1C(=O)c2ccccc2C1=O | -6 | -4 | -3 | 3388
59 | CCOC(=O)C1(CCCc2ccccc2)CCN(C2CCSCC2)CC1 | -2 | 0 | -1 | 2569
60 | CCn1c(C)nc2cc(C(=O)N/N=C/c3ccccc3)ccc21 | 6 | . | . | 2206

entry | RN4220 kill | PrP 5UTR inh | ugtP null kill
46 | -1.3 | -7 | 6
47 | 1.9 | -55 | 2
48 | -10 | -75 | 0
49 | 3.7 | -51 | -1
50 | -0.2 | -9 | 3
51 | . | -9 | .
52 | 5.9 | -19 | 2
53 | -0.2 | -16 | -1
54 | 98* | . | 97*
55 | 6.1 | 14 | -2
56 | 1.4 | -13 | -4
57 | -3.0 | -7 | 1
58 | -1.4 | -20 | 1
59 | 2.1 | 3 | 12
60 | . | -63 | .

(listing goes on)
entry | SMILES | BJeLR lethal | Mtb hypoxia rep | Mtb hypoxia rep growth | Autofluor counter
61 | CC1CCCN(C(=O)CCS(=O)(=O)c2ccc3c(c2)n(C)c(=O)c(=O)n3C)C1 (configuration not stated) | -9 | . | . | 4436
62 | COc1ccc(Br)cc1S(=O)(=O)NCc1ccccc1 | -4 | 5 | 3 | 2605
63 | O=C(CCSc1ccc(Cl)cc1)NC1CCCC1 | 2 | 7 | 2 | 4171
64 | COc1cccc(-c2ccc(C#N)c(SCC(=O)NCCc3ccc(Cl)cc3)n2)c1 | -12 | 3 | 2 | 2083
65 | CC(=O)N1CCN(C(=O)COC(=O)/C=C/c2ccccc2[N+](=O)[O-])CC1 | . | -6 | 2 | 3593
66 | CCCCCCOC(=O)C1=C(C)NC(=O)NC1c1ccc2c(c1)OCO2 (configuration not stated) | -1 | -1 | 5 | 3290
67 | COc1ccc(CNC(=O)CNC(=O)c2ccc(C(C)(C)C)cc2)cc1OC | -8 | 0 | -6 | 3191
68 | COc1cc(/C=C2/C(=O)NN(c3ccc(Cl)cc3)C2=O)ccc1OC(=O)c1ccco1 | -16 | 5 | -2 | 2570
69 | CCOc1ccc2ccccc2c1/C=N/NC(=O)c1c(C)cc(C)[nH]c1=O | -6 | . | . | 6239
70 | CCC(=O)N(CCc1ccc(S(N)(=O)=O)cc1)C1CC(=O)N(c2ccc(OC)cc2)C1=O (configuration not stated) | 6 | -13 | 2 | 3888

entry | RN4220 kill | PrP 5UTR inh | ugtP null kill
61 | 0.3 | -1 | 5
62 | 3.4 | -20 | -5
63 | 3.7 | -19 | 12
64 | 9.8 | 0 | 19
65 | 0.3 | 1 | 1
66 | 3.2 | -36 | -14
67 | 0.8 | . | 5
68 | 5.8 | -15 | 11
69 | . | -28 | .
70 | -0.5 | -19 | -3

Bioassay records as filed in PubChem.
